Screening data deposited in PubChem BioAssay by National Center for Advancing Translational Sciences (NCATS).
PINK1 expr mod – PINK1 expression modulation; PINK1 immunofluorescence, high-content cytometry, 24 h; Potency, µM (highest dose often 76.6 µM), without a hit: top-dose activation (PINK1 increase), actives largely listed as activators; actives 0.2% (n = 410,000); AID 624263; active = well fitted activation curve with a large enough effect; inconclusive = small, poorly fitted or top-dose-only effect; inactive = flat fitted curve, though single readings scatter; cell line not stated here;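 also: potency is read from the fitted curve at half-maximal effect; % of control where 0% means no effect; nearly all actives have a fitted effect of over 65% in size; a mitochondrial uncoupler was the plate control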
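Cells are seeded, rested 12 hours, then given compound at five concentrations or DMSO for 24 hours. After fixation, blocking and antibody staining, PINK1 amount and mitochondrial localization are scored; CCCP serves as control.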
TRPML1 agonist – human mucolipin-1 channel agonism; TRPML1-expressing cells, Ca2+ dye fluorescence, FDSS; host cell line not named in the record; reference of the full effect not given here; activation, % (concentration not given with the values); actives 0.12% (n = 410,000); Q9GZU1; in the data active = activation above about 50%; inconclusive = about 30% to 50%; inactive = below about 30%; also: 0% is about no effect; the text of the record puts the active cut at 80%
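Tetracycline-induced TRPML1-DL cells are seeded and incubated overnight before loading with a no-wash Ca2+ dye and quencher. Agonist activity is taken from the 110 s fluorescence read following compound pin-transfer on an FDSS, before EC80 54-4 challenge.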
Six1-Eya2 blk – blocks human Six1 binding to Eya2 | Q15475+O00167 | AlphaScreen GST-Six1/His-Eya2 binding, biochemical; active compounds read low; control for the full effect not named in the record | activity change, % (no concentration beside the values) | actives 0.56% (n = 360,000) | AID 651725; in the data active = activity change below about -65%; inconclusive = about -30% to -65%; inactive = above about -30%; also: % is scaled to controls: 0 for no effect and ±100 for the full control effect
Target sequence (O00167 whole entry, looked up): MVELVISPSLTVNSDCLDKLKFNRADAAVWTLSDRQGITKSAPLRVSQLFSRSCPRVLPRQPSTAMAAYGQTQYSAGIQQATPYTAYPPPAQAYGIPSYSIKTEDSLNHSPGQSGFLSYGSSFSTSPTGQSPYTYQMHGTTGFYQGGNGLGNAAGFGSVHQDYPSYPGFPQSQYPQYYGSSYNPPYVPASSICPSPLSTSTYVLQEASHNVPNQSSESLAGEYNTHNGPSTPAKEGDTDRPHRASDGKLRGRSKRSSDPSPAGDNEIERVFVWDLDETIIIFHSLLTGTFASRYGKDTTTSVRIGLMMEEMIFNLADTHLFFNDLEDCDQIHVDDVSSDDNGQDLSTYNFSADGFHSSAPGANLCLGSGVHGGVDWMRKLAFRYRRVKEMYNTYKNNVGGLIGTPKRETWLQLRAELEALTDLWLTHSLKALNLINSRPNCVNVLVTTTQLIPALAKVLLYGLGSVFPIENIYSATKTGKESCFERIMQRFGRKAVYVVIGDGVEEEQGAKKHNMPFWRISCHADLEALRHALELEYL
Target sequence (Q15475 whole entry, looked up): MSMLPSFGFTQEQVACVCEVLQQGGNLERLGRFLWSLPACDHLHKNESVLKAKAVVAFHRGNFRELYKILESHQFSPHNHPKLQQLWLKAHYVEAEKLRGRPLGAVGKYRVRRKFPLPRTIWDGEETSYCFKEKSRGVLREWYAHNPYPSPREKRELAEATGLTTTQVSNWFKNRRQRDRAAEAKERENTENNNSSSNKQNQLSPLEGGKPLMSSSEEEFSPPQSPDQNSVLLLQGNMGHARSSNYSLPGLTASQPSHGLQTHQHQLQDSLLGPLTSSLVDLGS
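AlphaScreen luminescence read after one hour at 37 °C in darkness. Pin-transferred compounds met GST-Six1 and His-Eya2 protein (5X stock 250 nM/500 nM) plus glutathione donor and Ni-chelate acceptor beads (5X, 50 ug/mL).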
D2 PAM – positive allosteric modulators of human D2 dopamine receptor. P14416. DiscoveRx D2 beta-arrestin cells, luminescence, 90 min; 100% = 57 uM dopamine signal. potentiation, % (concentration not given with the values). actives 0.23% (n = 360,000); active = potentiation of 50% or more; inconclusive = 30% to 50%; inactive = 30% or less;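 also: compound concentration not given in the record; tested on top of an EC20 dose of dopamine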
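PathHunter beta-arrestin assay in DiscoveRx D2 cells. Compounds were added with an EC20 of dopamine (50 nM final) for 90 min at 37 deg C. Luminescence was read 1 h after detection reagent, with 57 uM dopamine as the EC100 control.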
TRPML1 blocker – human mucolipin-1 channel inhibition; Q9GZU1; TRPML1-inducible cells, Ca2+ dye fluorescence, FDSS; active compounds read low; inhibition of EC80 agonist-evoked calcium signal; activity change, negative = inhibition, % (no concentration beside the values); actives 0.02% (n = 390,000); AID 624415; in the data active means activity change below about -50%; inconclusive means about -30% to -50%; inactive means above about -30%;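 also: stimulus is agonist 54-4 at its EC80 concentration; % is scaled to controls: 0 for no effect and ±100 for the full control effect; compound concentration not given in the record; the text of the record puts the active cut at -80%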
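Tet-induced TRPML1-DL cells loaded with Ca8 no-wash calcium dye were read kinetically on FDSS. Compound addition was followed by EC80 agonist 54-4 (4 uM final); inhibition was read over 110 s.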
D2 ag – agonists of human D2 dopamine receptor (beta-arrestin) | P14416 | activation, % (concentration not given with the values) | actives 0.084% (n = 360,000) | DiscoveRx PathHunter D2 beta-arrestin, luminescence, 90 min; 100% = 57 uM dopamine signal | AID 624465; in the data active = activation above about 40%; inconclusive = about 15% to 40%; inactive = below about 15%; also: compound concentration not given in the record; the text of the record calls up to 30% inactive
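DiscoveRx PathHunter D2 beta-arrestin cells (2,100/well) attached overnight, then compound-stimulated 90 min at 37 C in HBSS/10 mM HEPES/0.1% Tween-20 buffer; beta-galactosidase complementation read by luminescence after 1 h at ambient temperature. Dopamine 57 uM final (EC100) as control.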
The depositor's hits bear a star; u = inconclusive; x = not tested or not shown; [ ] = another dose, or the depositor's remark.

Preview:
SMILES | PINK1 expr mod | TRPML1 agonist | Six1-Eya2 blk | D2 PAM | TRPML1 blocker | D2 ag
CCc1ccc(N=C2NC(=O)/C(=C/c3cc(OC)c(O)c(OC)c3)S2)cc1 | 1.6% | x | -8 | -55 | x | u
Cc1c(Cl)cccc1NC(=S)N1CCN(c2ccccn2)CC1 | 3.1% | -0.7 | -2 | -4 | 5 | -5.0
CCCOC(=O)CC1C(=O)NCCN1Cc1ccccc1C (stereo unspecified) | 0.5% | -1.2 | 1 | 2 | -9 | -4.3
N/C(Cc1ccc(Cl)c(Cl)c1)=N\OC(=O)c1cccs1 | 5.8%[38.3 µM] | 0.7 | 3 | 81* | -6 | 15
O=C(NC1CCCCC1)c1c2c(nc3ccccc13)CCC2 | 2.2% | 0.0 | 0 | -6 | 0 | -1.2
N#Cc1c(NC(=O)c2cc3nc(-c4ccc(Br)cc4)cc(C(F)(F)F)n3n2)sc2c1CCCC2 | 2.4% | 1.9 | x | x | -22 | x
CSC1CCCCC1(O)CSc1nc2c(cc1C#N)CCCC2 (stereo unspecified) | 0.1%[38.3 µM] | -0.5 | -5 | -11 | -9 | 0.1
O=C(Cn1nc(Cl)nc1Cl)c1ccc([N+](=O)[O-])cc1 | -0.4% | x | 0 | 14 | x | u
Cc1ccc(S(=O)(=O)/N=C(/NC(=S)Nc2cccc(C)c2)c2ccccc2)cc1 | -1.2% | -0.5 | -1 | -16 | 0 | -10

All compounds of this part, from the first entry:
SMILES | PINK1 expr mod | TRPML1 agonist | Six1-Eya2 blk | D2 PAM | TRPML1 blocker | D2 ag
CCc1ccc(N=C2NC(=O)/C(=C/c3cc(OC)c(O)c(OC)c3)S2)cc1 | 1.6% | x | -8 | -55 | x | u
Cc1c(Cl)cccc1NC(=S)N1CCN(c2ccccn2)CC1 | 3.1% | -0.7 | -2 | -4 | 5 | -5.0
CCCOC(=O)CC1C(=O)NCCN1Cc1ccccc1C (stereo unspecified) | 0.5% | -1.2 | 1 | 2 | -9 | -4.3
N/C(Cc1ccc(Cl)c(Cl)c1)=N\OC(=O)c1cccs1 | 5.8%[38.3 µM] | 0.7 | 3 | 81* | -6 | 15
O=C(NC1CCCCC1)c1c2c(nc3ccccc13)CCC2 | 2.2% | 0.0 | 0 | -6 | 0 | -1.2
N#Cc1c(NC(=O)c2cc3nc(-c4ccc(Br)cc4)cc(C(F)(F)F)n3n2)sc2c1CCCC2 | 2.4% | 1.9 | x | x | -22 | x
CSC1CCCCC1(O)CSc1nc2c(cc1C#N)CCCC2 (stereo unspecified) | 0.1%[38.3 µM] | -0.5 | -5 | -11 | -9 | 0.1
O=C(Cn1nc(Cl)nc1Cl)c1ccc([N+](=O)[O-])cc1 | -0.4% | x | 0 | 14 | x | u
Cc1ccc(S(=O)(=O)/N=C(/NC(=S)Nc2cccc(C)c2)c2ccccc2)cc1 | -1.2% | -0.5 | -1 | -16 | 0 | -10
CC1CCN(c2cc(=O)n(C3CCCCC3)c(=O)[nH]2)CC1 | 2.5% | 0.0 | 0 | -5 | -9 | -1.5
Cc1ccc(C(=O)N/C(=C\c2ccc(Cl)cc2)C(=O)NCCCN2CCOCC2)cc1 | -1.6% | 1.5 | 8 | -4 | -6 | 3.9
CCOc1ccccc1N1CCN(Cc2cnc(-c3ccccc3)[nH]2)CC1 | -1.8% | 6.4 | -13 | -6 | 15 | 2.1
Cc1cc(-c2ccc(C(C)C)c(S(=O)(=O)N3CCN(c4ccccc4)CC3)c2)on1 | 12% | 1.8 | -24 | -8 | 8 | -3.3
CCN(CC)C(=O)C1=C(C)N(Cc2ccc(C(C)(C)C)cc2)C(=O)C(CC(=O)NCc2cccc3ccccc23)C1 (stereo unspecified) | 15% | 0.6 | -25 | -2 | 37 | -9.7
CCN(CC)c1ccc2cc(C(=O)O)c(=O)oc2c1 | -0.7%[38.3 µM] | 5.6 | 4 | -3 | 8 | -1.4
C=CCN1C(=O)c2ccc(C(=O)NCCc3ccc(OC)c(OC)c3)cc2C1=O | 3.1% | -0.7 | 14 | 1 | -6 | -0.9
CCOc1ccc(NC(=O)COc2ccc3c(c2)OCO3)cc1 | 0.2% | 1.8 | -1 | -4 | 0 | 0.6
O=C(Nc1ccccc1C(F)(F)F)c1cc(S(=O)(=O)N2CCOCC2)ccc1F | -3.5%[38.3 µM] | 0.8 | -2 | -7 | -5 | -2.2
Cc1cc(=O)n(C(NC(=O)c2ccccc2)C(=O)c2ccccc2)cn1 (stereo unspecified) | 3.3%[38.3 µM] | 2.2 | 3 | 1 | 7 | 1.5
O=c1[nH]c(-c2ccc3c(c2)OCO3)nc2c1sc(=S)n2-c1ccccc1 | 9.5% | -1.1 | 5 | -3 | 0 | -2.5
COc1ccc(N2CC(C(=O)O)CC2=O)cc1 (stereo unspecified) | 24%[38.3 µM] | 0.3 | 2 | -3 | 8 | -2.9
CC(=O)Nc1ccccc1NC(=O)C/C(C)=N/NC(=O)c1ccccn1 | 0.7% | 1.6 | u | 2 | 7 | -2.7
Cc1cc(-n2cnc(-c3cn[nH]c3C)n2)no1 | 0.5% | 0.0 | -3 | 4 | -12 | -2.0
O=C(Nc1ccc(F)cc1)Nc1ccc(Cl)cn1 | 5.4%[38.3 µM] | -0.4 | 2 | -3 | -4 | -1.3
CCN(c1ccc(OC)cc1)S(=O)(=O)c1ccc2[nH]c(=O)ccc2c1 | -0.2% | -0.8 | x | x | 40 | x
Cc1ccc(C)c(S(=O)(=O)NCCOc2nc(NC(C)C)nc(NC(C)C)n2)c1 | 2.0%[38.3 µM] | 1.4 | -2 | 9 | 28 | 1.7
Cc1ccc(C)c(NC(=O)Cn2c(=O)ccc3cc(S(=O)(=O)N4CCCC4)ccc32)c1 | -1.7% | 1.0 | x | x | -5 | x
CCOC(=O)c1cc(-c2ccccc2)sc1NC(=O)C(C)OC(=O)c1cccc(S(=O)(=O)N(C)C)c1 (stereo unspecified) | 2.9% | 0.8 | 2 | 8 | 14 | 4.8
COc1ccc(NC(=O)Nc2nnc(CC(=O)Nc3ccccc3)s2)cc1 | -0.4% | 1.2 | -12 | -9 | 5 | -2.9
CC(C)C[C@H](NC(=O)N1CCCCCC1)C(=O)O | 1.3% | -0.2 | 10 | -8 | -3 | -1.4
COc1ccc(-c2nnc(SCC(=O)N(C)Cc3ccccc3)o2)cc1OC | -0.3% | -0.7 | x | x | -4 | x
CCN1CCOC(CC(=O)Nc2cccc([N+](=O)[O-])c2)C1=O (stereo unspecified) | -1.2% | 0.3 | 4 | -3 | 4 | -3.8
COc1ccc(S(=O)(=O)N2CCN(CCC(=O)Nc3ccc(F)cc3)CC2)cc1 | -3.2% | -0.4 | 0 | -15 | 29 | -2.2
CC(=O)Nc1ccc(NC(=O)CSc2nccn2Cc2ccc3c(c2)OCO3)cc1 | 17% | 0.7 | x | x | 0 | x
CC(C(=O)Nc1ccc2c(c1)OCO2)N(c1ccc(Cl)cc1)S(C)(=O)=O (stereo unspecified) | 0.9% | 0.2 | 1 | -30 | 6 | -1.3
COc1ccc(NC(=O)CCS(=O)(=O)c2nc(-c3ccc4c(c3)OCO4)cc(C(F)(F)F)n2)c(OC)c1 | -1.1% | -0.9 | x | x | -9 | x
CC(=O)CSc1nc2c(c(=O)[nH]c(=O)n2C)n1CCCc1ccccc1 | 1.5% | -0.7 | -11 | 5 | 3 | 0.4
O=C1C(Cc2cccc([N+](=O)[O-])c2)S/C(=N/N=C/c2ccco2)N1c1ccccc1 (stereo unspecified) | 5.1% | 1.2 | -8 | -5 | 5 | 1.1
COc1ccc(S(=O)(=O)N2CCOCC2)cc1NC(=O)CSc1ccc(F)cc1 | 0.8% | 0.1 | 3 | -14 | -9 | -4.2
Cn1ccnc1SCC(=O)NC1CCCCC1 | -0.9% | -0.4 | -3 | -7 | -11 | -0.8
CC(=O)Nc1ccccc1C(=O)C(=O)Nc1ccc(C)c(C)c1 | 0.4% | 1.2 | 6 | -18 | 52 | -2.8
CCOc1ccc(NC(=O)CCC(=O)NNC(=O)COc2ccc(C)cc2)cc1 | 5.3% | -0.6 | -1 | -3 | 15 | 6.3
O=C(NNC(=O)C1CC(c2cccnc2)=NO1)Nc1cccc(F)c1 (stereo unspecified) | -1.9% | -0.4 | 24 | -8 | 35 | -5.2
CCN(CC)C(=O)C1=C(C)N(Cc2ccccc2)C(=O)C(CC(=O)NCc2ccco2)C1 (stereo unspecified) | 0.3% | -0.6 | 4 | 4 | 8 | -8.0
CCOc1cc(CNc2ccc(O)cc2)cc(Cl)c1OCc1ccccc1 | 4.0% | 1.0 | x | x | -17 | x
O=C(NCCO)c1ccc(-c2nnc(Nc3ccc(OC(F)(F)Cl)cc3)c3ccccc23)cc1 | 1.7% | -0.7 | x | x | 6 | x
CCOC(=O)C1C(C(=O)NN)C1C(=O)Nc1ccccc1 (stereo unspecified) | -0.6% | 0.5 | 15 | -25 | 7 | -5.2
CC(=O)N1N=C(c2cccc(O)c2)CC1c1cccs1 (stereo unspecified) | 4.7% | 0.3 | -1 | 16 | -20 | u
COc1ccccc1CNC(=O)c1ccncc1 | 0.7% | 0.4 | 0 | -2 | 9 | -3.8
O=C(OCc1cn([C@H]2C[C@H](c3ccc(Cl)cc3)N(C(=O)c3cccs3)C[C@@H]2O)nn1)c1ccccc1 | 0.6% | -0.1 | -6 | 6 | 15 | 0.4

Other results
SMILES | PINK1 expr mod | TRPML1 agonist | Six1-Eya2 blk | D2 PAM | TRPML1 blocker | D2 ag
CCOC(=O)C1CCCN(/C=C2\SC(=S)N(CC)C2=O)C1 (stereo unspecified) | 2.2% | 1.6 | -10 | -16 | 4 | -0.9
CCOc1ccc2nc(NC(=O)CSc3nc(SC)ns3)sc2c1 | 10.0% | -0.6 | -3 | 1 | -1 | 3.3
O=C(NCCc1ccc(Cl)cc1)C1CC(=O)N(CCc2ccccc2)C1 (stereo unspecified) | -0.3% | 0.1 | 2 | -12 | -3 | -4.0
C=CCN1C(=O)/C(=C/c2ccsc2)SC1=S | 0.4% | 2.2 | -5 | -3 | -4 | -4.2
C=CCC(=O)N1CCC(n2nccc2NC(=O)c2ccc3c(c2)OCO3)CC1 | 1.9% | 0.3 | 7 | -2 | -9 | 4.0
Cc1ccc(NC(=S)N(CCCN2CCOCC2)Cc2ccccn2)cc1Cl | 2.0% | -1.4 | -7 | -11 | -10 | -3.0
CC#CCN1c2ccccc2[C@]23C[C@@H](C(=O)OC)N(C(C)=O)C2=NC(C(=O)OC)=C(C(=O)OC)[C@H]13 | -0.2% | 1.4 | 0 | 2 | 45 | -3.4
CCC(=O)Nc1cccc(NC(=O)c2ccccc2Br)c1 | 4.2% | -0.2 | 6 | 1 | -12 | -1.9
CC(=O)N1c2ccc(S(=O)(=O)NCC3CCC(C(=O)NC4CCCCC4)CC3)cc2CC1C (stereo unspecified) | -1.6% | -1.5 | -6 | -5 | 22 | 13
